HTT prom inh: inhibitors of huntingtin promoter activity. HEK293 HTT promoter firefly luciferase reporter (activity 0% = vehicle and -100% = no light), 24 h. Potency, µM (titrated, usually from 57.5 µM), for inactives: top-dose activity change, negative = inhibition, actives largely listed as inhibitors. AID 1508623. actives 0.93% (n = 48,000); active = well fitted inhibition curve with a large enough effect; inconclusive = small, poorly fitted or top-dose-only effect; inactive = no such curve, though single readings can be large or run the other way; also: nearly all actives have a fitted effect of over 50% in size
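HEK293 cells carrying firefly luciferase reporters were seeded at 2,500 per well in Opti-MEM and cultured for 24 h. They were then treated with compounds at up to 57.5 uM final for 24 h at 37 degrees C before Dual-Glo luminescence readout.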
PMP22 txn prim: modulates PMP22 transcription in S16 Schwann cells | actives 2% (n = 43,000) | Potency, µM (doses to about 57.5 µM), without a hit: at the top dose activity change, negative = inhibition, most hits filed as inhibitors | S16 Pmp22-F2sN Schwann cells (luciferase reporters placed in the Pmp22 gene), FLuc/NLuc coincidence luminescence, 24 h | AID 1508649; active = clear falling dose curves in both reporters; inconclusive = both reporters move, but less clearly or upward; inactive = either reporter flat; the % is the NLuc reporter signal; also: % is scaled to controls: 0 for no effect and ±100 for the full control effect; some results filed as inactive show a strong effect at the top dose
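Transcriptional readout in edited S16(c9) cells: two luciferases reported from the Pmp22 locus, measured in turn after 24 h compound incubation.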
Active calls of the source: *; ? = inconclusive; . = no result given; & = joins results of further samples; [ ] = dose if it differs, or a comment. Potency is read from the fitted curve at half-maximal effect.

Sequence of screens – HTT prom inh	PMP22 txn prim
1. Cc1ccc(C)c(N2CCN(C(=O)Cn3ncc4c(=O)oc5ccc(C)cc5c43)CC2)c1
  3%	-33%
2. Cc1nc2c(-c3ccc(F)cc3)c(C)nn2c(C)c1CCC(=O)NCc1ccc(Cl)cc1
  -6%	?
3. COc1ccccc1NC(=O)CCNS(=O)(=O)c1ccc2c(c1)CCN2C(=O)C1CC1
  -15%[11.5 µM]	-2%
4. COc1ccccc1N1CCN(c2ncnc3onc(-c4cccc(Cl)c4)c23)CC1
  -21%	-7%
5. CCOc1ccc(-n2c(=O)c3c(C)c(C)sc3n(CC(=O)c3ccccc3)c2=O)cc1
  -18%	?
6. Cc1oc(-c2ccccc2F)nc1Cn1c(SCc2ccccc2F)nc2ccncc21
  -19%	-28%
7. COCCc1nn2c(=O)cc(COC(=O)c3ccc(Br)cc3)nc2s1
  10%	-9%
8. O=C(Nc1nnc(S(=O)(=O)N2CCN(c3ccc(F)cc3)CC2)s1)c1ccc(Cl)cc1
  -7%	1%
9. CN1C(C(=O)NC(C)(C)C)=CC(c2ccc3c(c2)OCO3)=NS1(=O)=O
  ?	-2%
10. Cc1ccc(CNC(=O)CCS(=O)(=O)c2cc(Br)cc3c2N(C(=O)C2CC2)CC3)cc1
  -7%	4%
11. Cc1ccc(CCNC(=O)c2c[nH]c3ccc(S(=O)(=O)Nc4ccc(C)cc4C)cc3c2=O)cc1
  ?	?
12. CCOc1ccc(NS(=O)(=O)c2ccc(N)cc2)nn1
  11%	.
13. Cc1cccc(-c2nc3c4ccccc4n(CC(=O)Nc4cccc(F)c4)c(=O)n3n2)c1
  13%	-8%
14. Cc1ncc(CO)c2c1Oc1nc(-c3ccccc3)nc(SCC(=O)N3CCCCC3)c1C2
  -2%	12µM*
15. COc1ccc(C2CC(=O)N(Cc3ccc(F)cc3)c3ccccc3S2)cc1 (centres undefined)
  ?	?
16. COc1ccc(C2CC(=O)c3c([nH]c(C(=O)OC4CCC(C)CC4)c3C)C2)cc1OC (centres undefined)
  -20%	5%
17. Cc1ccc(O)c(NC(=O)c2nc3nc(C)cc(C(F)F)n3n2)c1
  4%	-4%
18. CCOC(=O)c1cc(-c2ccccc2)n(CCC(=O)NCc2ccccc2Cl)c1C
  -24%	-1%
19. Cc1nc(-c2ccc(S(=O)(=O)N(Cc3ccccc3)C(C)C)cc2)co1
  -22%	-7%
20. Cn1cc(C(=O)Nc2ccc(C#N)cc2)c2ccccc2c1=O
  -28%	-70%
21. CCn1c(CN2CCCCC2)nc2cc(NC(=O)COc3ccc(C(C)(C)C)cc3)ccc21
  ?	-54%
22. COc1ccc(Cc2nc3ccc(C(=O)NCCc4ccccc4)cc3o2)cc1
  ?	-21%
23. COCCCNC(=O)c1cc2cc(S(=O)(=O)N3CCCCC3)ccc2n1C
  ?	-17%
24. COC(=O)c1cc2occc2n1Cc1nc(-c2cccc(Cl)c2)oc1C
  -2%	-3%
25. O=C(Nc1ccc(F)cc1)C1CCN(c2nc3ccccc3nc2C(F)(F)F)CC1
  3%	-8%
26. COc1ccccc1C(=O)Nc1ccc(C(=O)OCc2cc(=O)n3ccsc3n2)cc1
  4%	11%
27. CC(=O)N1CCc2cc(CNS(=O)(=O)c3ccc(Br)s3)ccc21
  -5%	-20%
28. O=C1CN(C(=O)Nc2ccccc2C(F)(F)F)C(c2ccccc2)c2c(sc3c2CCCC3)N1 (centres undefined)
  ?	-19%
29. Cn1c(=O)cc(OCCCC(=O)Nc2ccc(F)cc2)c2ccccc21
  30%	?
30. O=C(NCCO)C(=O)Nc1c2c(nn1-c1ccc(F)cc1)CSC2
  -13%	1%

Carrying on.
Sequence of screens – HTT prom inh	PMP22 txn prim
31. Cc1c(-c2nc(-c3ccc4c(c3)OCO4)no2)nnn1-c1cccc(C(F)(F)F)c1
  8%	10%
32. CCOCCCNC(=O)C(Cc1ccccc1)NS(=O)(=O)c1ccc2c(c1)c(=O)n(C)c(=O)n2C (centres undefined)
  -8%	-17%
33. CCOc1ccc(CCNC(=O)Cn2c(-c3cccs3)cc3ccccc32)cc1OCC
  -38%	?
34. CCN1CCN(c2cc3c(cc2F)c(=O)c(C(=O)O)cn3C2CC2)CC1
  -1%	.
35. Cc1cccc(C(=O)N2CCc3cc(CNC(=O)CCc4ccccc4)ccc32)c1
  ?	?
36. COc1cc2nc(SCc3ccc(F)cc3)n3nc(CCn4c(C)nc5ccccc54)nc3c2cc1OC
  ?	-16%
37. Cc1ccc(S(=O)(=O)Nc2c(C)nc3nc(C)[nH]n3c2=O)c(C)c1
  -12%	0%
38. CC1CCN(c2nc3ccc(C(=O)N4CCN(c5ccccc5)CC4)cc3s2)CC1
  1.1µM*	?
39. Cc1ccc(-c2noc(-c3cccnc3NCc3ccc(Cl)cc3)n2)cc1
  17%	-6%
40. CCc1nc2nc(C)cc(Nc3ccc(OC)cc3OC)n2n1
  -28%	-12%
41. O=C(CN1C(=O)CSc2ccc(S(=O)(=O)N3CCCC3)cc21)Nc1cccc(Cl)c1
  -20%	-10%
42. Cc1cccc(CNC(=O)c2ccc3c(c2)c(C)c(C)n3Cc2ccccc2)c1
  -19%	6%
43. COc1cccc(CNC(=O)C(Cc2ccccc2)NS(=O)(=O)c2ccc3c(c2)oc(=O)n3C)c1 (centres undefined)
  -16%	7%
44. CCOc1ccc(N(C)S(=O)(=O)c2cc(-c3cnc(C)o3)ccc2OC)cc1
  ?	?
45. Cc1c(C(=O)NCc2ccccc2Cl)sc2nc3n(c(=O)c12)CCC3
  23%	3%
46. Cc1cc(OCCn2cc(C(=O)c3cccs3)c3ccccc32)ccc1Cl
  ?	-24%
47. Cc1noc(Cn2c(=O)c3ccccc3n(CC(=O)Nc3ccc(F)cc3F)c2=O)n1
  -3%	13%
48. COc1ccc(N2CCN(Cc3nc4c(c(=O)[nH]c(=O)n4C)n3Cc3ccccc3F)CC2)cc1
  -4%	-16%
49. Cc1nc2sccn2c(=O)c1S(=O)(=O)Nc1ccc(N2CCOCC2)c(Cl)c1
  ?	?
50. Cc1nc(-c2cccc(F)c2)sc1CCNC(=O)c1c(F)cccc1Cl
  -37%	?
51. CSc1nn(Cc2cccc(Cl)c2)c(N(C(C)=O)C(C)=O)c1S(=O)(=O)c1ccccc1
  ?	?
52. Cc1ccc(-n2ncc3c(NCCc4ccccc4)ncnc32)cc1C
  21%	-3%
53. O=C(CSc1nnc(-c2ccccc2)c(-c2ccccc2)n1)NC1CCCC1
  ?	27%
54. Cc1nncn1-c1ccc(C(=O)Nc2cc(F)ccc2F)cc1
  5%	-21%
55. O=C(NCc1ccc(Cl)cc1)C1=Cc2cc(Br)ccc2OC1
  -16%	-9%
56. CCC(=O)N1CCCc2cc(S(=O)(=O)N3CCC(C(=O)Nc4cccc(Cl)c4)CC3)ccc21
  ?	?
57. CCCCNC(=O)CCn1c(=O)c2cccn2c2ccc(F)cc21
  -4%	-19%
58. CC(=O)N1CCc2cc(S(=O)(=O)NC(CC(C)C)C(=O)Nc3cc(C)cc(C)c3)ccc21 (centres undefined)
  -16%	13%
59. Cc1ccccc1C(=O)Nc1ccc(S(=O)(=O)N2CCC(c3nc4ccccc4s3)CC2)cc1
  ?	?
60. Cc1ccc(C)c(N2CCN(C(=O)c3cc(S(=O)(=O)N4CCCCCC4)cn3C)CC2)c1
  ?	?

Rewritten with bars between the fields: 4 of the compounds above.
# | SMILES | HTT prom inh | PMP22 txn prim
60 | Cc1ccc(C)c(N2CCN(C(=O)c3cc(S(=O)(=O)N4CCCCCC4)cn3C)CC2)c1 | ? | ?
53 | O=C(CSc1nnc(-c2ccccc2)c(-c2ccccc2)n1)NC1CCCC1 | ? | 27%
35 | Cc1cccc(C(=O)N2CCc3cc(CNC(=O)CCc4ccccc4)ccc32)c1 | ? | ?
44 | CCOc1ccc(N(C)S(=O)(=O)c2cc(-c3cnc(C)o3)ccc2OC)cc1 | ? | ?

New compounds follow
Sequence of screens – HTT prom inh	PMP22 txn prim
61. CN(Cc1ccc(F)cc1)S(=O)(=O)c1nnc(NC(=O)c2ccccc2)s1
  -10%	-36%
62. CCN(CC)C(=O)Cn1c(SCCOc2ccc(Cl)cc2)nc2ccccc21
  -18%	?
63. COc1cc2nc(Nc3ccc(C)c(C)c3)nc(N)c2cc1OC
  -14%	?
64. COc1ccc(Cl)cc1NC(=O)Cc1coc2c(C)c(C)ccc12
  ?	?
65. O=C(NCc1cccs1)c1nn(-c2ccccc2)nc1CO
  ?	-1%
66. CCOC(=O)c1c(C)[nH]c(C)c1S(=O)(=O)NCC(=O)Nc1cc(Cl)ccc1OC
  -17%	48%
67. O=C(NCc1ccccc1F)C1CCN(Cc2cc3ccccc3n2Cc2cccc(Cl)c2)CC1
  -5%	-44%
68. CC(=O)Nc1ccc2nc(SCCOc3cc(C)cc(C)c3)sc2c1
  ?	?
69. O=C(CCn1c(=O)c2cccn2c2cccnc21)Nc1ccccc1C(F)(F)F
  4%	-6%
70. CCCN1Cc2cccc(C(=O)Nc3cc(Cl)ccc3C)c2C1=O
  0%	?
71. CC(=O)c1ccc(NC(=O)Cn2c(=O)c3cccn3c3ccccc32)cc1
  -7%	-41%
72. Cc1ccccc1NC(=O)Cn1c(=O)n(Cc2ccc3c(c2)OCO3)c(=O)c2oc3ccccc3c21
  -1%	?
73. Cc1ccc(Cl)cc1NC(=O)C(NS(=O)(=O)c1cccc2nsnc12)c1ccccc1 (centres undefined)
  -35%	11%
74. O=c1c2sc3ccccc3c2n(Cc2cccc(Cl)c2)c(=O)n1Cc1ccccc1
  ?	-2%
75. CCc1c(C)nc(SCc2nc(-c3ccccc3C)no2)[nH]c1=O
  -28%	-3%
76. Cc1ccc(-c2cc3ncc4c(n3n2)-c2cc(Cl)ccc2OC4)cc1
  -12%	-27%
77. CC1(C)CC(=O)c2cc(C(=O)Nc3ccc(Br)cc3)c(=O)n(-c3ccc(Cl)cc3)c2C1
  -9%	1%
78. Cc1ccc(CNC(=O)CSc2nnc(C)c3c(C)n(-c4ccccc4)nc23)cc1
  ?	-27%
79. Nc1nc(N)nc(-c2cc(Cl)ccc2Cl)n1
  -3%&6%	.
80. O=C(CCn1c(=O)c2cccn2c2ccccc21)Nc1ccc(F)cc1
  -9%	?
81. CN1C(CSCC(F)(F)F)Nc2cc(Cl)c(S(N)(=O)=O)cc2S1(=O)=O (centres undefined)
  -5%	.
82. CS(=O)(=O)Nc1ccc(-c2nc3ccccc3s2)cc1
  0%	-7%
83. Cc1ccc(OCCn2cc(C(=O)c3cccs3)c3ccccc32)cc1
  -28%	?
84. Cc1nc(-c2ccccc2)sc1-c1ccc(SCC(=O)Nc2cccc(C(F)(F)F)c2)nn1
  6%	?
85. CCCCC(CC)CNC(=O)CCCn1c(=O)[nH]c2ccsc2c1=O (centres undefined)
  -21%	?
86. O=c1oc2ccccc2cc1-c1cn2cc(Cc3ccc(F)cc3)sc2n1
  0%	-20%
87. Cc1c(C(=O)N2CCC(C)CC2)c(S(=O)(=O)NCc2ccc(Br)cc2)c(C)n1C
  -22%	9%
88. COc1cc(Cl)ccc1Nc1ncc(C(=O)N2CCN(c3ccccc3OC)CC2)c2ccccc12
  -6%	?
89. COc1ccccc1NC(=O)C(=O)NCC(c1ccc2c(c1)OCO2)N1CCN(C)CC1 (centres undefined)
  -8%	20%
90. CCCS(=O)(=O)c1c(S(=O)(=O)CCC)c2cc(CC)ccn2c1C(=O)c1ccc(OC)cc1
  -18%	7%

More results:
Sequence of screens – HTT prom inh	PMP22 txn prim
91. COc1ccc(C(=O)COC(=O)CCCC(=O)Nc2ccc(C(C)=O)cc2)cc1
  66%[activator]	-6%
92. Cc1ccc(-c2nnc(Nc3ccc(F)cc3)c3ccccc23)cc1S(=O)(=O)NC(C)C
  53%[activator][11.5 µM]	-36%
93. O=C(CN1C=NS(=O)(=O)c2ccc(C(F)(F)F)cc21)Nc1cccc(C(F)(F)F)c1
  -19%	-41%
94. COC(=O)c1c(NC(=O)Nc2ccc(Cl)cc2)sc(C)c1C
  -28%	-10%
95. CCN(C(=O)Cc1c(C(=O)O)[nH]c2ccccc12)c1ccc(OC)cc1
  -21%	56%
96. Cc1ccc(-n2cnc3cc(C(=O)NCCC4=CCCCC4)ccc32)cc1Cl
  -6%	0%
97. Cc1ccc(-n2c(=O)c3c4c(sc3n(CC(=O)C(C)(C)C)c2=O)CCCCC4)cc1C
  -6%	?
98. COc1cccc(-c2nc(CS(=O)(=O)CC(=O)N3CCN(c4ccccc4)CC3)c(C)o2)c1
  ?	10%
99. COc1ccc(CNc2ccc3cc(S(=O)(=O)N4CCCCC4)ccc3n2)cc1
  ?	-39%
100. CCc1ccc(NC(=O)Cn2c(=O)n(CCCCC(=O)NCCc3ccc(Cl)cc3)c(=O)c3ccccc32)cc1
  -3%	?
101. Cc1nc2sccn2c(=O)c1S(=O)(=O)Nc1cccc(Cl)c1C
  -27%	-19%
102. CCCCc1nn2c(=O)cc(COC(=O)c3ccc4c(c3)OCO4)nc2s1
  -13%	-39%
103. CC(=O)c1ccc(NC(=O)CN2C(=O)CCc3cc(S(=O)(=O)N4CCC(C)CC4)ccc32)cc1
  -18%	47%
104. Cc1noc(-c2ccc(N3CCC(C)CC3)c([N+](=O)[O-])c2)n1
  24%	?
105. CCCC(=O)Nc1nnc2n1CCS2
  6%	0%
106. Cc1cccc(C2N3CC4(C(C)C)CN2CC(C(C)C)(C3)C4=O)c1 (centres undefined)
  -19%	-26%
107. CCCOc1ccc(C(=O)Nc2ccc(NC(=O)c3ccccc3)c(Br)c2)cc1
  ?	?

Compound activity deposited in PubChem BioAssay by National Center for Advancing Translational Sciences (NCATS).
